Bioassay records: PubChem, National Center for Advancing Translational Sciences (NCATS)
HPGD inh – qHTS Assay for Inhibitors of HPGD (15-Hydroxyprostaglandin Dehydrogenase) | 15-hydroxyprostaglandin dehydrogenase [NAD(+)] (Homo sapiens), P15428 | purified HPGD, NADH fluorescence kinetic, PGE2 substrate | Potency, µM, for inactives: at the top dose activity change, negative = inhibition, hits mostly inhibitors | actives 4.3% (n = 150,000); active = well fitted inhibition curve with a large enough effect (not every such curve was filed as active); inconclusive = small, poorly fitted or top-dose-only effect, or another doubt; inactive = no such curve, though single readings can be large or run the other way;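 also: top concentration of the series not given in the record; plate controls included wells without enzyme; inactives centre near -10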
Target sequence (P15428 whole entry, looked up): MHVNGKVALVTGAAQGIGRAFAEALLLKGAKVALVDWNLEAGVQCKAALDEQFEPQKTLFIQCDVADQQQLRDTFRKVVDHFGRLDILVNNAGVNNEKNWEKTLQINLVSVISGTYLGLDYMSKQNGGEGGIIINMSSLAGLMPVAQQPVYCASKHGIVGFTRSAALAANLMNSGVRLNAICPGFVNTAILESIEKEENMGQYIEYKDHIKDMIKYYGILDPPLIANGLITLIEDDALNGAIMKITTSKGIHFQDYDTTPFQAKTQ
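20 nM HPGD preincubated 15 min at room temperature with compound in 50 mM Tris-HCl pH 8, 0.01% Tween 20. Started with 1 mM NAD+ and 30 uM prostaglandin E2; NADH fluorescence (360/450 nm) read 5 times over 30-s intervals, last minus first.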
An asterisk follows results filed as active; ? = inconclusive. % is scaled to controls: 0 for no effect and ±100 for the full control effect; potency is read from the fitted curve at half-maximal effect. Some of the compounds tested; count on the stated rates, not on these rows.

| Compound | HPGD inh |
| --- | --- |
| CCOc1cc(CNCCc2ccc(S(N)(=O)=O)cc2)cc(Cl)c1OCc1ccccc1 | -15.5% |
| CCSc1nnc(-c2ccccc2N=Cc2c(C)[nH]n(-c3ccccc3)c2=O)c(=O)[nH]1 | -8.6% |
| CC(C)Nc1ncnc2c1cnn2-c1ccc(Cl)cc1 | ? |
| COc1ccc(OC)c(CN2CCN(c3ccccc3OC)CC2)c1 | -0.9% |
| CCOC(=O)c1cc2occc2n1CC(=O)NCCOC | -9.6% |
| COc1ccc(CCC(=O)OCC(=O)c2ccc(C)cc2)cc1 | -13.0% |
| COc1ccc(C2C(C(=O)Nc3ccccc3OC)=C(C)Nc3ncnn32)cc1 (stereo unspecified) | -10.1% |
| CCCCN1Cc2cc(C(=O)c3cc(OC)ccc3O)cnc2NC1=O | -24.1% |
| O=c1[nH]n(-c2ccccc2)c(=O)c2ccccc12 | -18.5% |
| COc1ccc2cc(C3(C)NC(=O)N(CC(=O)NCCC4=CCCCC4)C3=O)ccc2c1 (stereo unspecified) | -4.3% |
| CCc1ccccc1NC(=O)CN(c1cccc(OC)c1)S(C)(=O)=O | -0.6% |
| C=CCn1c(Cc2c(C)[nH]c3ccccc23)nnc1SCC(=O)NCc1ccc(F)cc1 | -13.7% |

Next part; the last 3 above are carried over.
| Compound | HPGD inh |
| --- | --- |
| COc1ccc2cc(C3(C)NC(=O)N(CC(=O)NCCC4=CCCCC4)C3=O)ccc2c1 (stereo unspecified) | -4.3% |
| CCc1ccccc1NC(=O)CN(c1cccc(OC)c1)S(C)(=O)=O | -0.6% |
| C=CCn1c(Cc2c(C)[nH]c3ccccc23)nnc1SCC(=O)NCc1ccc(F)cc1 | -13.7% |
| CCOC(=O)C(=O)/C(=C\N(C)C)c1onc(-c2ccccc2)c1C(=O)OC | -11.5% |
| COc1ccc(S(=O)(=O)/N=C2/NC(=O)/C(=C\c3ccco3)S2)cc1 | 28.2µM* |
| CC1(C)C(=O)OC(C(=O)c2ccc(Cl)cc2)C(C)(C)C1=O (stereo unspecified) | -4.4% |
| CSc1nc2c(c(=O)n1C)SC(C)C2 (stereo unspecified) | -8.4% |
| COC(=O)[C@H](Cc1ccccc1)NC(=O)O[C@@H]1C(=O)c2ccc(OC)cc2O[C@H]1c1cccc(C(F)(F)F)c1 | -14.8% |
| COc1cc(OC)c2c(=O)c(-c3ccccc3)coc2c1 | ? |
| CC(C)(C)NC(=O)COc1ccc(CNn2nnnc2N)cc1 | -9.3% |
| CC(C(=O)Nc1nccs1)N1C(=O)C2CC=CCC2C1=O (stereo unspecified) | -4.4% |
| CCCCc1c(O)nc2sc3cc(OC)ccc3n2c1=O | 15.8µM* |
| Cc1ccc(-c2csc(-c3c[nH]c4ccccc34)n2)c(C)c1 | -14.5% |
| COC(=O)c1cn(NC(=O)Cc2ccc(Cl)c(Cl)c2)c(=O)c2ccccc12 | ? |
| CCN(Cc1ccccc1)C(=O)C1CCC(CNc2c(N3CCOCC3)c(=O)c2=O)CC1 (stereo unspecified) | 25.1µM* |

Overlap with the part before: 5 compounds; new compounds follow.
| Compound | HPGD inh |
| --- | --- |
| CC(C(=O)Nc1nccs1)N1C(=O)C2CC=CCC2C1=O (stereo unspecified) | -4.4% |
| CCCCc1c(O)nc2sc3cc(OC)ccc3n2c1=O | 15.8µM* |
| Cc1ccc(-c2csc(-c3c[nH]c4ccccc34)n2)c(C)c1 | -14.5% |
| COC(=O)c1cn(NC(=O)Cc2ccc(Cl)c(Cl)c2)c(=O)c2ccccc12 | ? |
| CCN(Cc1ccccc1)C(=O)C1CCC(CNc2c(N3CCOCC3)c(=O)c2=O)CC1 (stereo unspecified) | 25.1µM* |
| O=C(Cc1cccs1)Nc1nnc(SCc2cccc3ccccc23)s1 | -26.7% |
| CCN(c1c(C)n(C)n(-c2ccccc2)c1=O)S(C)(=O)=O | 1.7% |
| COc1ccc(O)c(-c2cc(-c3cccc(Br)c3)n[nH]2)c1 | ? |
| CCOc1cccc(C(=O)Nc2ccc(N(CC)CC)cc2)c1 | -11.8% |
| COc1ccc(-c2nnc(SC(C)C(=O)Nc3c(C)n(C)n(-c4ccccc4)c3=O)o2)cc1 (stereo unspecified) | 2.2% |
| CCOC(=O)c1cccc(NC(=O)C2CCN(S(=O)(=O)c3cccs3)CC2)c1 | -2.7% |
| CCC(=O)c1ccccc1OCCN1C(=O)NC(C)(C)C1=O | -8.4% |
| CS(=O)(=O)N(CC(=O)N/N=C/c1ccc(OCC(=O)N2CCOCC2)cc1)c1ccccc1Cl | -2.4% |
| CCOC(=O)/C(C#N)=N/Nc1ccc(S(=O)(=O)N2CCc3ccccc32)cc1 | -1.5% |
| CCOc1cccc(C(=O)Nc2ccccc2OC(F)F)c1 | -16.9% |
| C=CCOCC(O)CS(=O)(=O)Cc1ccc(Cl)cc1 (stereo unspecified) | -12.7% |
| CC(NC(=O)CC12CC3CC(CC(C3)C1)C2)C(=O)O (stereo unspecified) | -7.1% |
| CCOc1cc(/C=N/O)ccc1OCC(=O)Nc1cccc(C)c1 | -18.3% |
| CCOC(=O)NC(=O)CSc1nc(C)cc(C)c1C#N | -18.8% |
| CN(C)CCCN(C(=O)CCc1ccccc1)c1nc2ccc(F)cc2s1 | -0.9% |
| O=C(c1ccc([N+](=O)[O-])cc1)N1CCSC1c1ccc(Cl)cc1 (stereo unspecified) | -6.6% |
| CCOC(=O)N1CCN(Cc2cccs2)CC1 | 5.0% |
| CCC/C=C(\CCC)C(NC(=O)C(C)(C)C)c1ccc(C(=O)OC)cc1 (stereo unspecified) | -18.6% |
| CCCNS(=O)(=O)c1cccc(C(=O)NC2CCCc3ccccc32)c1 (stereo unspecified) | -19.1% |
| O=C(Cn1nc(-c2ccccc2)c2ccccc2c1=O)Nc1ccc2c(c1)nc1n2CCOC1 | -13.4% |
| CC1CCN(CCCNC(=O)c2cn(C)c3ccc(S(=O)(=O)N4CCCC4)cc3c2=O)CC1 | -12.3% |
| COc1ccc(S(=O)(=O)N(C)CC(=O)NCCC2=CCCCC2)cc1 | -1.8% |
| CC(C)NS(=O)(=O)c1ccc(Oc2ncc(C(F)(F)F)cc2Cl)cc1 | -23.1% |
| c1ccc(-c2csc3ncnc(NCCN4CCOCC4)c23)cc1 | -12.8% |
| CCCNC(=O)COC(=O)c1ccc(OCC(=O)Nc2ccccc2OC)c(OC)c1 | -20.6% |
| Cc1cccc(Sc2nc(-c3ccccc3)ccc2C#N)c1 | -28.0% |
| Cc1nn(C)cc1C(N)=O | -1.6% |
| Cc1cc(C)n(-c2nc3ccccc3c(=O)n2OCC(=O)OCc2ccccc2)n1 | -8.3% |
| CCOC(=O)N1CCN(C(=O)CN(c2cc(C(F)(F)F)ccc2Cl)S(C)(=O)=O)CC1 | -8.0% |
| O=C(/C=C/Nc1ccc(Cc2ccc(N/C=C/C(=O)C(F)(F)F)cc2)cc1)C(F)(F)F | -17.1% |
| O=C(NCCC1=CCCCC1)C1COc2ccccc2O1 (stereo unspecified) | ? |
| Cc1ccc(C)c2[nH]c(=O)c(CN(Cc3ccco3)C(=O)Nc3ccccc3)cc12 | -11.1% |
| COC(=O)c1ccc(C2C(Oc3ccccc3)C(=O)N2CCc2ccc(OC)c(OC)c2)cc1 (stereo unspecified) | -3.9% |
| CC(C)C(C)(C#N)NC(=O)CSc1nnc(C(F)(F)F)n1C (stereo unspecified) | -5.8% |
| CCCc1ccc(-c2ccc(C(=O)O)cc2)nc1 | -9.4% |
| COc1ccc(-n2c(SCC(=O)c3c(N)n(C)c(=O)n(C)c3=O)nc3ccccc32)cc1 | -15.3% |
| Cn1cc(Br)c(C(=O)NNC(=O)c2ccc(Cl)cc2)n1 | -0.2% |
| O=C(OCCN=C1NS(=O)(=O)c2ccccc21)C1CC(=O)N(c2ccc3ccccc3c2)C1 (stereo unspecified) | -9.5% |
| O=C(CCSCCc1ccccn1)Nc1ccc(Cl)cn1 | -6.8% |
| Cc1onc(-c2ccccc2)c1C(=O)Nc1nc2c(s1)CCCC2 | -14.4% |
| O=C(Nc1ccc(-c2nnc(-c3ccccc3)o2)cc1)C(F)(F)F | -18.4% |
| O=C1CN(CC(=O)N2CCOCC2)c2ccccc2O1 | -5.9% |
| Cn1c(C(=O)NCC2CCCO2)cc2oc3ccccc3c21 (stereo unspecified) | 1.41µM* |
| O=C(CSc1nc2ccccc2o1)N1CCN(C(=O)c2ccco2)CC1 | -12.7% |
| Cc1ccc(C)c(NC(=O)CN(C)C(=O)Cc2ccccc2)c1 | -2.5% |
| O=C(Nc1ccc2c(c1)CCC2)c1ccccc1 | -15.1% |
| CC(=O)N1CCN(c2ccc(Oc3nnnn3-c3ccccc3)cc2)CC1 | -3.2% |
| Oc1ccc2ccccc2c1CNc1cnc2ccccc2c1 | ? |
| CCC(=O)Nc1ccc2c(c1)ncn2-c1ccccc1OC | -15.8% |
| CCOc1ccccc1-c1nc(-c2cccc(Br)c2)no1 | -26.2% |
| O=C(NCc1ccc(F)cc1Cl)C1CCN(S(=O)(=O)N2CCC3(CC2)OCCO3)CC1 | -21.4% |
| Cc1ccc(N)cc1O | -4.3% |
| CC(C)Oc1ccccc1C1CC(=O)Nc2c1c(=O)n(C)c(=O)n2C (stereo unspecified) | -19.2% |
| Cc1ccsc1/C=C/c1ccc2ccccc2n1 | ? |
| O=C1CCC(C(=O)Nc2ccccc2)N1 (stereo unspecified) | -2.8% |
| Cc1c(Cl)cccc1NC(=S)NN1CCOCC1 | -0.8% |
| O=C(O)c1nn(-c2ccccc2)ccc1=O | -13.2% |
| Cc1ccc(-c2csc(N(Cc3ccco3)C(=O)c3cccs3)n2)cc1 | ? |
| CCc1c(C)sc(NC(NC(C)=O)(C(=O)OC)C(F)(F)F)c1C#N (stereo unspecified) | -2.0% |
| CCOC(=O)C1=C(C)NC2=C(C(=O)CC(C)(C)C2)C1c1coc2ccccc2c1=O (stereo unspecified) | -18.1% |

More results.
| Compound | HPGD inh |
| --- | --- |
| Clc1ccc(C2[C@H]3CN(Cc4ccc(-c5ccccc5)cc4)[C@H](c4ccccc4)C34CC2(c2cccnc2)C4)cn1 (stereo partly specified) | -9.7% |
| COc1ccccc1N(C(=O)c1ccco1)C(C(=O)NC1CCCC1)c1cccnc1 (stereo unspecified) | -3.2% |
| CCN(C(=O)[C@@H]1CCCN1C(=O)c1cccs1)c1nc2cc(Cl)ccc2s1 | -8.4% |
| C=C(C)C(N)=O | -7.7% |
| Cc1ccccc1CS(=O)(=O)c1nnc([C@H](CC(C)C)NC(=O)OC(C)(C)C)o1 | 12.6µM* |
| O=C(c1cccc(C(=O)N2CCN(c3ccccc3F)CC2)n1)N1CCN(c2ccccc2F)CC1 | 2.4% |
| CCOc1ccc2nc(SCC(=O)N3CCN(C(=O)c4ccco4)CC3)sc2c1 | -23.9% |
| N#CCC(=N)N1CCN(c2ccc(Cl)cc2)CC1 | -13.1% |
| COCCNC(=S)NCCCNc1nc2cc3c(cc2cc1C#N)OCO3 | ? |
| CCCCn1c(=O)c2c(c3ccccc31)OCC(=O)N2 | -11.0% |
| COC(=O)c1ccccc1OCCCOc1ccc(C)cc1OC | -15.0% |
| O=C(NCc1ccc(F)cc1)c1ccc(N2CCc3ccccc32)c([N+](=O)[O-])c1 | -20.7% |
| CCOC(=O)N1CCN(CC(=O)Nc2ccc(C)cc2)CC1 | 2.9% |
| Cc1ccc(Cn2nnc3c(=O)[nH]c(C4CCN(S(=O)(=O)c5cc(C)ccc5C)CC4)nc32)cc1 | 22.4µM* |
| NC12CCc3c(no[n+]3[O-])C1(O)CC(c1ccccc1)=[N+]2[O-] (stereo unspecified) | -10.1% |
| C=CCc1ccc(OCC(O)CN2CCC(Cc3ccccc3)CC2)c(OC)c1 (stereo unspecified) | -5.2% |
| Cc1c(C(=O)NC2CCCc3ccccc32)oc2ccccc12 (stereo unspecified) | -10.6% |
| Cc1ccc(Cl)cc1N1CCN(C(=O)C2CCN(S(=O)(=O)c3cnc[nH]3)CC2)CC1 | -1.6% |
| CCN(CC)c1ccc(NC(=O)C2=CCN(S(=O)(=O)c3ccc(F)cc3)CC2)c(C)c1 | -3.9% |
| Nc1nonc1-c1nc2ccccc2n1Cc1ccccc1 | -4.2% |
| CCn1c(SCC(=O)N/N=C/c2cccs2)nc2ccccc21 | -25.8% |
| COc1ccc2c(c1)Cc1cc(N=[N+]([O-])c3ccc4c(c3)Cc3cc(OC)ccc3-4)ccc1-2 | -11.2% |
| O=C1C(Cl)=C(NCC2CCCO2)C(=O)N1Cc1ccccc1 (stereo unspecified) | -23.0% |
| CC1=CC(=C(C#N)C#N)C=C(C)N1CCN1CCN(C(=O)Nc2cccc(Cl)c2)CC1 | -24.4% |
| COc1ccccc1-n1c(SCC(=O)Nc2cccc(C)c2)nc2c(c1=O)SCC2 | -14.7% |
| Cc1ccccc1OCc1nnc(SCC(=O)Nc2c(C)n(C)n(-c3ccccc3)c2=O)n1-c1ccccc1 | -8.5% |
| COc1ccccc1C(=O)NCc1ccccc1 | 11.2µM* |
| Cc1cc(CSc2ccccc2)ccc1NC(=O)c1cccc([N+](=O)[O-])c1 | -6.2% |
| OC/C=C/c1ccc(O)c(O)c1 | -5.8% |
| CCN(CC)c1nc2ccccc2nc1-n1nc(C)cc1C | 4.0% |
| Cc1ccc(C(C2C(=O)CC(C)(C)CC2=O)C2C(=O)CC(C)(C)CC2=O)s1 | 2.82µM* |
| O=C(CN1C(=O)NC2(CCCCCC2)C1=O)NCc1ccco1 | -7.0% |
| CC(C)c1ccc(NC(=O)COC(=O)[C@H](CCC(N)=O)NC(=O)c2ccc(F)cc2)cc1 | -7.3% |
| O=C(Cc1cccs1)N1CCCC(c2nc3c(nnn3Cc3cccc(Cl)c3)c(=O)[nH]2)C1 (stereo unspecified) | 6.31µM* |
| COc1cc(OC)c(C2=NOC(C(=O)Nc3cc(C)nn3-c3ccccc3)C2)cc1Cl (stereo unspecified) | -0.3% |
| COCCNCC(=O)Nc1ccccc1Sc1ccccc1 | -12.0% |
